Bioassay records deposited in PubChem by National Center for Advancing Translational Sciences (NCATS).
Rango release inh: inhibition of RanGTP-driven Rango-importin beta dissociation | O95149+P62826 | Biochemical FRET Rango-importin beta, RanGTP-induced dissociation | Potency, µM (highest dose often 46.1 µM), without a hit: at the top dose activity change, negative = inhibition | 0.071% of 340,000 active | AID 540253; active means falling FRET ratio curve, often poorly fitted, with flat reads before Ran was added; inconclusive means other falling curves, or compound fluorescence or quenching; inactive means flat or rising ratio curve;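 also: potency is read from the fitted curve at half-maximal effect; % of control where 0% means no effect; nearly all actives have a fitted effect of over 45% in size; -100% = wells without RanGTP and RCC1; the record marks most hits as doubtful in a second field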
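Compounds preincubate 5 min with complex of recombinant Rango and importin beta in PBS with 1 mM DTT. Ran (0.6 uM) loaded with 2 mM GTP plus 0.2 uM RCC1 starts dissociation; FRET is recorded 45 min later.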
miR-21 FLuc: raises the signal of a miR-21 reporter | HeLa miR-21 FLuc reporter, luciferase, 48 h | Potency, µM (highest dose often 38.3 µM), inactives show at the top dose reporter change, positive = more light | 340,000 tested, under 10 active; active = well fitted rising curve with a large enough effect; inconclusive = small, poorly fitted or top-dose-only effect; inactive = no such curve, though single readings can be large or run the other way;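 also: % of control where 0% means no effect; miR-21 action dims this reporter so a rising signal means less miR-21 action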
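HeLa miR-21-FLuc reporter line, endogenous miR-21; 2000 cells/well in DMEM/10% FBS; compound titration up to ~40uM final, 48 h, 37 degree Celsius; luciferase detection reagent, 15 min lysis, CCD luminescence.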
GLA inh pH 4.5: alpha-galactosidase A (human) inhibition, pH 4.5 | P06280 | purified enzyme, 4-MU-alpha-Gal fluorescence, pH 4.5 | activity change, negative = inhibition, % at 105 µM | 230,000 tested, under 10 active; inconclusive = small, poorly fitted or top-dose-only inhibition, or a rising curve; inactive = flat fitted curve, though single readings scatter; no compound was filed as active;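 also: 0% = full activity with enzyme and -100% = basal without enzyme; dose as in the result columns while the protocol names 77 µM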
Target sequence (P06280 whole entry, looked up): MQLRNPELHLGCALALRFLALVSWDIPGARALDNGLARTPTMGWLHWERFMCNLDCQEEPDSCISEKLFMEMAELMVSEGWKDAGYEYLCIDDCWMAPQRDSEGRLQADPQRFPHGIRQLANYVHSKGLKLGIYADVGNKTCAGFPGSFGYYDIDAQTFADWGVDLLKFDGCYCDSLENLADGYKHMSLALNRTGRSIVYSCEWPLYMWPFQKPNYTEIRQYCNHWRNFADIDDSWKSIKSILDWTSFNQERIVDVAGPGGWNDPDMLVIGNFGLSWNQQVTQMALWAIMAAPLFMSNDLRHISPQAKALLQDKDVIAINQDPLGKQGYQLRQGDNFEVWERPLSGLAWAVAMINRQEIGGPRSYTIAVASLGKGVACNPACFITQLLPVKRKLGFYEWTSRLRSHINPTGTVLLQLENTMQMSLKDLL
Rango-impB inh: prevents formation of the Rango-importin beta complex. 0.031% of 340,000 active. AID 540263. Rango CFP/YFP FRET sensor + importin beta, 45 min. Potency, µM (top dose mostly 92.2 µM), for inactives: at the top dose inhibition of complex formation; active = rising FRET ratio curve, often small or poorly fitted; inconclusive = mostly compound fluorescence or quenching in the first reads; inactive = flat curves in all reads;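 also: potency is read from the fitted curve at half-maximal effect; 0% = DMSO wells and 100% = buffer wells lacking importin beta; nearly all actives have a fitted effect of over 15% in size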
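FRET biosensor Rango (snurportin 1 IBB between N-terminal EYFP and C-terminal Cerulean), 50 nM in PBS/1 mM DTT/0.02% Tween-20/0.1% BSA, preincubated 5 min RT with compound; 0.125 microM importin beta added, 45 min RT, CFP/YFP FRET ratio read.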
An asterisk follows results filed as active; u = inconclusive; x = no result given; & = joins results of further samples; [ ] = another dose, or the depositor's remark.

Rango release inh	miR-21 FLuc	GLA inh pH 4.5	Rango-impB inh	compound
18%	-10%	-9	2.5%	CC(=O)NC(CCS(C)(=O)=O)C(=O)Nc1ccc2c(c1)OCCO2 (configuration not stated)
7%	0%	6	1.4%	COc1ccc(/C=C(\NC(=O)c2ccccc2Cl)C(=O)NCCCC(=O)O)cc1
-21%	3%	3[21.1 µM]	-0.1%	COc1ccc(NC(=O)C2CCCC2)cn1
12%	1%	6	1.9%	CCOC(=O)CCC(=O)NNC(=O)c1ccc(NC(=O)c2ccccc2)cc1
10%	-15%	-9	-0.1%	COc1cc(/C=N/NC(=O)[C@H](Cc2c[nH]c3ccccc23)NC(=O)OCC(C)C)cc([N+](=O)[O-])c1O
-8%	-16%	2	1.9%	O=C(COC(=O)CCc1ccc(S(=O)(=O)N2CCCCC2)cc1)Nc1ccc2c(c1)OCO2
14%	-2%&-1%	2	0.5%	CCOC(=O)c1ccc(-n2c(C)nc3c(cnn3-c3ccc(Cl)cc3)c2=O)cc1
3%	2%	x	4.8%	CCC1(C)Cc2ccccc2-c2nc[nH]c(=O)c21 (configuration not stated)
-12%	0%	3	-0.1%	Cc1ccc2c(c1)C1NC(=S)NC(C)(O2)C1C(=O)Nc1ccc(Cl)cc1 (configuration not stated)
12%	-9%	5	2.0%	CCOC(=O)CNC(=O)c1ccccc1Br
10%	-11%	4	5.9%	CCCCCCn1c(N2CCC(C(N)=O)CC2)nc2c1c(=O)[nH]c(=O)n2C
5%	x	x	-4.1%	C=CCNC(=O)C1CC2c3ccccc3C1c1ccccc12 (configuration not stated)
32%	-9%	-6	-4.1%	CC1C(=O)C(C)C(c2cccs2)NC1c1cccs1 (configuration not stated)
9%	-2%	-1	0.7%	O=C(N1CCN(c2ccc(F)cc2)CC1)C1(c2cccs2)CCOCC1
3%	0%	-2	0.9%	NC(=O)C1CCCN(C(=S)NCc2ccc3c(c2)OCO3)C1 (configuration not stated)
16%	-24%	-2	-3.2%	CCOC(=O)CNC(=O)c1sc(NC(=O)c2ccccc2F)nc1C
-8%	-36%	0	-0.5%	c1ccc(CSc2nnc(SCc3ccccn3)s2)nc1
3%	-1%	-4	-5.1%	CCCNC(=O)c1cc(OC)c(OC)cc1[N+](=O)[O-]
18%	x	x	2.0%	COc1ccc(C2(C)NC(=O)N(CC(=O)NC3CCCC3)C2=O)cc1OC (configuration not stated)
2%	8%	x	-0.8%	O=S(=O)(NNc1ccc(F)cc1F)c1cccc(Cl)c1
u	x	x	4.2%	Cc1ccc(NC2=CC(=O)C(=O)c3ccccc32)c(C)c1
0%	-5%	-8	-3.9%	CN(Cc1ccccc1)C(=O)c1oc(=O)c2ccccc2c1-c1ccccc1
1%	2%	2	0.0%	CN1C(=O)N(C)C2(c3ccccc3)N(C(C)(C)C)C(=O)NC12c1ccccc1 (configuration not stated)
5%	-3%	x	-0.2%	CC1CCCC(NC(=O)CN2C(=O)COc3ccccc32)C1C (configuration not stated)
-5%	-1%	3[21.1 µM]	2.7%	O=C1CSC(c2ccccn2)N1c1ccc(F)cc1F (configuration not stated)
32%	-4%	x	u	CS(=O)c1ccc(-n2c(=O)n(Cc3ccccc3)c(=O)c3[nH]cnc32)cc1 (configuration not stated)
-11%	6%	x	-0.5%	Cn1c(=O)c2sccc2n(CC(=O)NCCC2=CCCCC2)c1=O
u	4%	x	-4.3%	O=C(COc1ccc(S(=O)(=O)Nc2cccc(C(F)(F)F)c2)cc1)N1CCOCC1
6%	-6%	x	-4.7%	Cn1c(C(=O)N2CCC(C(N)=O)CC2)cc2cc(Cl)ccc21
-6%	x	x	2.4%	COc1ccc(C2OCC(C)(C)CO2)cc1OC
6%	-8%	-6	-0.5%	COc1ccc(C(=O)NC(=S)NC2CCSC2=O)cc1 (configuration not stated)
3%	-2%	-4	1.6%	COc1ccc2cc(CN(CC3COCCO3)S(=O)(=O)c3ccc(Cl)cc3)c(=O)[nH]c2c1 (configuration not stated)
0%	0%	-2	-1.4%	S=c1[nH]nc(-c2cccnc2)n1/N=C/c1ccco1
1%	-6%	11	1.8%	Cc1onc(-c2ccccc2Cl)c1C(=O)Nc1nnc(-c2ccc(Cl)cc2Cl)s1
9%	x	x	0.3%	CCC(CO)Oc1cc(NC(=O)Cc2ccccc2)c2ncn(C(C)C)c2c1 (configuration not stated)
-17%	4%	-9	-4.6%	NC(=O)c1nsc(C(=O)N(CC(=O)NCc2ccc3c(c2)OCO3)C2CCCC2)c1N
11%	17%	-11	-1.1%	Cc1no[n+]([O-])c1COc1cccc(/C=N/Nc2nncn2N)c1
-14%	x	x	-2.2%	Cc1ccc(CNc2ncnc3[nH]ncc23)cc1
10%	0%	4	5.1%	N#Cc1ccccc1OCCCNC1CCCC1
15%	-11%	3	2.4%	O=C(CN1C(=O)NC2(CCCCCC2)C1=O)Nc1ccc2c(c1)CCC2

3 compounds already listed, sorted by the number in GLA inh pH 4.5, descending.
Rango release inh	miR-21 FLuc	GLA inh pH 4.5	Rango-impB inh	compound
0%	0%	-2	-1.4%	S=c1[nH]nc(-c2cccnc2)n1/N=C/c1ccco1
3%	-2%	-4	1.6%	COc1ccc2cc(CN(CC3COCCO3)S(=O)(=O)c3ccc(Cl)cc3)c(=O)[nH]c2c1 (configuration not stated)
-17%	4%	-9	-4.6%	NC(=O)c1nsc(C(=O)N(CC(=O)NCc2ccc3c(c2)OCO3)C2CCCC2)c1N

Other entries follow.
Rango release inh	miR-21 FLuc	GLA inh pH 4.5	Rango-impB inh	compound
-12%	-3%	x	u	CCCCN1C(C(=O)Nc2ncccn2)=C(O)c2ccccc2S1(=O)=O
-7%	12%	2	0.2%	O=C(Nc1ccccn1)c1ccc(S(=O)(=O)c2ccc(Cl)cc2)cc1
-5%	-1%	-4	u	CCN(CC)C(=O)C1CCCN(c2ccc([N+](=O)[O-])cc2[N+](=O)[O-])C1 (configuration not stated)
2%	-27%	-4	-0.9%	CCn1c2ccccc2c2cc(NC(=O)C/C(C)=N/NC(=O)c3ccccc3N)ccc21
u	0%	x	u	CCCn1nc(NC(=O)CC(C)C)c2cc3cccc(C)c3nc21
2%	1%	-3	2.9%	COc1ccc(CN2CCNC(=O)C2CC(=O)N(C)Cc2ccccn2)cc1OC (configuration not stated)
-6%	u	11	-4.2%	Cc1ccc(NC(=O)CCl)c(C)c1
12%	-1%	-27	-0.1%	COc1ccc(C(=O)NCCNc2ccc([N+](=O)[O-])cc2)cc1
2%	-4%	0	0.9%	CC(C(=O)Nc1ccc(S(=O)(=O)N2CCOCC2)cc1)N1CCN(c2ccccn2)CC1 (configuration not stated)
0%	2%	x	-2.4%	CC[C@H](C)[C@@H](CNC)NC[C@@H](Cc1ccc(O)cc1)NCC(C)(C)C
15%	-19%	9	-3.9%	CC(=O)Nc1ccc(NC(=O)c2ccc(-n3c(C)ccc3C)cc2)cc1
13%	-18%	9	0.9%	COc1cc(NC(=O)COc2ccc(F)cc2)nc(OC)n1
0%	x	x	-0.7%	CCCn1c(=O)n(C)c(=O)c2c(SC(C)C(=O)NCC3CCCO3)nc(CC(C)C)nc21 (configuration not stated)
8%	8%	x	-0.2%	Cc1ccc(NS(=O)(=O)c2ccc3c(c2)N(C)CCO3)cc1
-5%	x	x	2.4%	COC(=O)c1ccc(COC(=O)CNC(=O)CNC(=O)c2ccc(OC)cc2)cc1
23%	-1%	x	2.3%	CCCCN1C2CCCC1CC(NC(=O)c1cccc(OC)c1)C2 (configuration not stated)
8%	3%	x	-2.9%	CCOc1cc(C2NC(=O)CCC2[N+](=O)[O-])cc(Br)c1OCC (configuration not stated)
-16%	-2%	-6	-2.6%	COc1ccc(CNC(=O)C2=C(C)C(=O)OC23CCC(C)CC3)cc1 (configuration not stated)
2%	-17%	1	-3.8%	CN(C(=O)c1ccc2nccnc2c1)C1CCCCC1
u	9%	u	u	Cc1cc(C)c2c(n1)nn1c(NCCCN(C)C)cc(C)nc21
-7%	x	x	-0.6%	CCN(CC(=O)Nc1c(F)cccc1F)C(=O)c1ccc(C2SCCS2)cc1
1%	-58%	-4	2.0%	COc1ccc(/C(C)=N/Nc2nc3ccccc3nc2C)cc1
u	-21%	x	u	CN1CCc2c(sc(N)c2C(=O)c2ccc(Cl)cc2)C1
-6%	x	x	-2.7%	CCN(C(=O)Cn1cnc2c1c(=O)n(C)c(=O)n2C)C1CCCCC1
14%	0%	6	0.9%	CCOc1ncccc1C(=O)N(CC)CC(=O)Nc1ccc(NC(C)=O)cc1
3%	6%	4	-0.9%	COc1ccc(C2=NN(C(=O)CSc3ncccn3)C(c3ccc(C)cc3)C2)cc1 (configuration not stated)
23%	-3%	-3	6.2%	C/C(=N/O)c1c(O)c(C)c(-c2ccccc2)n(-c2ccccc2)c1=O
-11%	2%	-4	1.4%	O=[N+]([O-])/C=C1\CCCCCN1
-5%	-2%	-8	1.8%	CC1=NN(c2ccc(C(=O)OC(C)C)cc2)C(=O)/C1=C\C=C\c1ccco1
-5%	-4%	0	0.1%	c1ccc(CO/N=C(\c2ccc(C3CC3)nc2)C2CC2)cc1
11%	1%	0	-1.7%	Nc1n[nH]c(-c2ccc(Br)cc2)c1Cl
1%	x	x	-1.3%	CS(=O)(=O)c1ccc(Cl)c(NC(=O)COC(=O)C23CC4CC(CC(C4)C2)C3)c1
u	-7%	x	0.1%	Cc1nc(CC(C)C)cc(C(=O)N2CCCC(Nc3ccc(C)c(C)c3)C2)n1 (configuration not stated)
-12%	-48%	-2	-2.0%	O=C1CCC(C(=O)Nc2cccc(Oc3ccccc3)c2)=NN1
-5%	x	x	1.7%	Cc1cccc(OCC(=O)N(Cc2ccco2)c2c(N)n(Cc3ccccc3)c(=O)[nH]c2=O)c1
0%	-4%	3	-0.9%	COc1ccc(C(=O)N2CCC(C(=O)NCc3ccccn3)CC2)cc1
5%	-19%	-8	-2.4%	O=C1N/C(=C\c2ccccc2)c2ccccc21
17%	-2%	x	0.0%	CC(C)(C)c1ccc2c(c1)N(CC(=O)N1CCCC1)C(=O)CO2
-5%	2%	-9	-0.5%	CCOc1nc(Oc2cccc(C(=O)O)c2)nc(Oc2cccc(C(=O)O)c2)n1
31%	-2%	x	0.1%	O=C(CCNC(=O)C1CCN(S(=O)(=O)c2ccc(F)cc2)CC1)NCc1cccc(Cl)c1

An excerpt of these results, field by field:
molecule: Nc1n[nH]c(-c2ccc(Br)cc2)c1Cl
  Rango release inh = 11%	miR-21 FLuc = 1%	GLA inh pH 4.5 = 0	Rango-impB inh = -1.7%

molecule: CS(=O)(=O)c1ccc(Cl)c(NC(=O)COC(=O)C23CC4CC(CC(C4)C2)C3)c1
  Rango release inh = 1%	miR-21 FLuc = x	GLA inh pH 4.5 = x	Rango-impB inh = -1.3%

molecule: Cc1nc(CC(C)C)cc(C(=O)N2CCCC(Nc3ccc(C)c(C)c3)C2)n1 (configuration not stated)
  Rango release inh = u	miR-21 FLuc = -7%	GLA inh pH 4.5 = x	Rango-impB inh = 0.1%

molecule: O=C1CCC(C(=O)Nc2cccc(Oc3ccccc3)c2)=NN1
  Rango release inh = -12%	miR-21 FLuc = -48%	GLA inh pH 4.5 = -2	Rango-impB inh = -2.0%

Further entries follow.
Rango release inh	miR-21 FLuc	GLA inh pH 4.5	Rango-impB inh	compound
12%	-17%	-11&-15	0.3%	CC(CN1c2ccccc2Sc2ccccc21)N(C)C (configuration not stated)
-18%	-2%	-5	3.2%	Cc1occc1C(=O)Nc1ccc(S(=O)(=O)N2CCCC2)cc1
0%	x	x	u	CC(C)C[C@@H](CNCC(=O)[C@H](Cc1c[nH]c2ccccc12)NC(=O)c1[nH]cnc1C(=O)N[C@@H](C)CN)NC(=O)c1nc[nH]c1C(=O)N[C@@H](C)C(=O)O
-6%	-26%	2	11%	Cc1cc(C)cc(NC(=O)c2cc(Cl)sc2Cl)c1
2%	u	0	1.1%	N=c1ccn(Cc2c(Cl)cccc2Cl)cc1
-3%	-12%	-16	4.7%	CCOC(=O)c1c(NC(=O)CNCCOC)sc2c1CCCC2
4%	-2%	5	-0.2%	Cc1c(NC(=O)CSc2n[nH]c(-c3ccccc3)n2)c(=O)n(-c2ccccc2)n1C
-14%	-1%	-6	-3.1%	N#CCCN(Cc1cccnc1)C(=S)NC(=O)c1ccco1

This is a subset. The share of hits here may be higher or lower than overall.
